NPYLR7 agonist: mosquito NPYLR7 agonism; HEK293T NPYLR7/Galpha15, GCaMP6s calcium fluorescence; activation, % at 10 µM; 270,000 tested, 0.15% active; AID 1259423; in the data active = activation above about 40%;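 also: 0% = vehicle and 100% = reference agonist at the receptor; some compounds past the cut are filed as inactive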
NPYLR7 agonist max-min: recorded beside NPYLR7 agonist, whose call it bears; activation, %; measured here: Max-Min RFU normalised activation; some inactives read as strong as hits;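 span of the calcium signal over five minutes; 0% = vehicle and 100% = native peptide agonist; compound fluorescence can raise it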
* hit, by the source's call; & = joins results of further samples. These rows are one share of the data; the hit share may differ from the screen's.

SMILES	NPYLR7 agonist	NPYLR7 agonist max-min
COC(=O)C(c1ccccc1F)C1C=CC(NC(=O)c2ccc(C(F)(F)F)c(F)c2)C1 (stereo not drawn)	4	0
CCOc1cccc(C(C)NC(=O)C2CCCCN2C(=O)OC(C)(C)C)c1 (stereo not drawn)	22	11
Cc1cc(N(C)C)n2nc(C(F)(F)F)c(-c3ccccc3)c2n1	2	0
Cc1ccc(-n2nnc(C(=O)Nc3ccc4oc(=O)ccc4c3)c2C)cc1C	-4	-7
Cc1ccc(N2CCn3c2nc2c3c(=O)n(Cc3ccc(F)cc3)c(=O)n2C)cc1	4	3
CCOC(=O)C1CCCN(C(=O)C2COC3(CCN(C(=O)c4ccc(OC)c(OC)c4)CC3)N2C(=O)c2ccccc2)C1 (stereo not drawn)	27	14
N#CC1C(=N)OC2=C(C(=O)CCC2)C1c1cccc(F)c1 (stereo not drawn)	6	-2
CC1CN(S(=O)(=O)Cl)CC(C)O1 (stereo not drawn)	3	9
C=CCOc1ccc(/C=C2\SC(=S)N(CC(=O)O)C2=O)cc1OC	-4	-10
c1csc(CNc2c3c(nc4ncnn24)CCC3)c1	14	16
N#Cc1ccc(NS(=O)(=O)c2cc(Cl)sc2Cl)cc1	11	9
N#Cc1ccc(OCCNC(=O)N2CCCCC2c2ncc[nH]2)cc1 (stereo not drawn)	6	5
O=C(C1CC1)N1CCC(c2nc(-c3cccnc3)no2)CC1	2	-2
CCOCCCN1COc2ccc3c(=O)c(Oc4ccccc4OCC)coc3c2C1	-7	-11
Cc1c(C(=O)OC(C)C#N)oc2c(F)cccc12 (stereo not drawn)	1	-3
Cc1sc2nc(CN3CCCC3)nc(Sc3nnc(C4CCCCC4)o3)c2c1C	4	8
COc1ccc(C2CC(=O)C3C(=Nc4ccccc4NC3c3ccncc3)C2)cc1OC (stereo not drawn)	-9	-17
O=C(NC1CC(=O)N(Cc2cccc(F)c2)C1)c1cn2cccnc2n1 (stereo not drawn)	6	7
S=c1[nH]nc(-c2nccc3ccccc23)n1C1CCCCC1	-8	-12
CCc1ccccc1NC(=O)N1CCSC1c1ccc(C(C)C)cc1 (stereo not drawn)	-4	6
CCOC(=O)c1nn(-c2ccccc2C)c(=O)cc1N1CCN(C(C)=O)CC1	8	3
CCCc1nc(NCc2nc(-c3ccccc3)n[nH]2)c2cnn(C)c2n1	0	-1
Cc1nn(-c2ccc(C(=O)N(C)C3(C#N)CCC3)cc2)c(C)c1Br	-2	-2
COCC1(C(=O)NCCS(=O)(=O)N2CCCC2)CCC1	5	5
CCc1ccc(NC(=O)NCCOc2ccc3nnc(-c4cccc(OC)c4)n3n2)cc1	-1	-1
Cc1nc(S(=O)(=O)N(C2CCCC2)C2CCCC2)cn1C	4	2
CC1(C(=O)NS(=O)(=O)c2cccc(F)c2)CCN1C(=O)c1ccccc1 (stereo not drawn)	-1	-3
CCOc1ccc(NC(=O)N2CCSC2c2ccc(Cl)cc2Cl)cc1 (stereo not drawn)	21	20
COc1ccc(OC)c(-c2cnc(-c3cccc(CNC(=O)c4c(C(C)C)cc(C(C)C)cc4C(C)C)c3)[nH]2)c1	2	2
Clc1ccccc1C1CCN(Cc2nc(-c3cccs3)no2)C1 (stereo not drawn)	-1	-5
COc1ccc(OC)c(-c2cc(C(=O)N3CCC(c4nnc(C5CC5)o4)CC3)n(C)n2)c1	-4	-5
CCN(CCn1cccn1)Cc1cn[nH]c1-c1cc(OC)c(OC)c(OC)c1	3	2
c1ccc(Cc2nnc3sc(-c4ccco4)nn23)cc1	-1	-3
CC1Cc2cc(S(N)(=O)=O)ccc2N1Cc1cc2c(cc1Br)OCCO2 (stereo not drawn)	2&7	3&3
CN(Cc1ccc(C(=O)Nc2ccc3[nH]ncc3c2)cc1)Cc1cnccn1	8	5
N#Cc1c(F)cccc1NC1(CO)CCCC1	-3	-6
CN(Cc1ccccc1)C(=O)c1nn(C)c2c1CC(N1CCN(c3ccccc3O)CC1)CC2 (stereo not drawn)	13	3
COC(=O)c1ccc(C(=O)OC)c(NC(=O)c2cc3cc(Cl)ccc3oc2=O)c1	-1	-4
CN1CCCC(C(=O)Nc2ccccc2Oc2ccccc2)CC1 (stereo not drawn)	0	1
CNc1cnc(-c2ccccc2NC(C)=O)cn1	1	-1

Pulled one by one from the list above, 4 records:
SMILES	NPYLR7 agonist	NPYLR7 agonist max-min
CCc1ccc(NC(=O)NCCOc2ccc3nnc(-c4cccc(OC)c4)n3n2)cc1	-1	-1
COC(=O)c1ccc(C(=O)OC)c(NC(=O)c2cc3cc(Cl)ccc3oc2=O)c1	-1	-4
CCN(CCn1cccn1)Cc1cn[nH]c1-c1cc(OC)c(OC)c(OC)c1	3	2
CCCc1nc(NCc2nc(-c3ccccc3)n[nH]2)c2cnn(C)c2n1	0	-1

Later entries
SMILES	NPYLR7 agonist	NPYLR7 agonist max-min
O=C1NC2=C(C(=O)CCC2)C(c2ccc(Cl)cc2)N1 (stereo not drawn)	-2	-10
O=C(CSc1nnc(CNC(=O)c2ccco2)n1-c1ccc(F)cc1)Nc1nc2ccccc2s1	5	3
COc1c(C)cc(C(=O)C2CCCN(C(=O)C(=O)Nc3ccccc3)C2)cc1C (stereo not drawn)	3	-9
Cc1nc(=NC(=N)N)n(C)c2ccccc12	-1	-4
O=C(CNC(=O)c1cccnc1)N=Nc1c(O)[nH]c2ccccc12	-3	-7
CN1CCN2CCN(S(=O)(=O)N3CCCC3)CC2C1=O (stereo not drawn)	-6	-7
CC(C)CNc1nc(N)c([N+](=O)[O-])c(NCc2ccccc2)n1	9	8
c1ccc2sc(SCc3cn4ccsc4n3)nc2c1	9	4
Cc1ccccc1-c1cnnc(NCC2COCCO2)n1 (stereo not drawn)	-4	-6
O=C(Cn1cnc([N+](=O)[O-])n1)Nc1cccc(Cl)c1Cl	-8	-13
O=C(NN=Cc1ccc([N+](=O)[O-])cc1)c1cccc(Br)c1	4	0
Cc1cc2ncc(C(=O)NC(C)C34CC5CC(CC(C5)C3)C4)c(C)n2n1 (stereo not drawn)	10	8
Cc1cc(CNC(=O)Nc2cc(F)cc(N3CCCC3)c2)no1	-4	-3
CCc1nc2ccc(C(=O)Nc3ccc4c(c3)OCC(=O)N4)cn2c1N(CC)CCOC	-8	-11
O=C(CSc1nnc(C2CC2)n1C1CC1)c1ccc2c(c1)CCC2	9	15
O=C(NCc1ccccc1Cn1cccn1)c1cn[nH]n1	6	-4
Cc1nc(CN(C)C(=O)Nc2ccc(Cl)c(Cl)c2)n[nH]1	7&9	6&9
COc1ccc(Br)cc1C(=O)Nc1cccc(-c2nc3ccccc3o2)c1	-5	-4
COc1cccc(NC(=O)C(=O)Nc2ccc([N+](=O)[O-])cc2C)c1	-4	1
O=C(O)c1ccccc1Oc1ccc(Cl)cc1Cl	-5	-6
CCN(CC)c1onc(-c2ccccc2)c1CN(CCN(C)C)C(=O)CC(C)C	1	1
NC(=O)C1CCN(C(=O)/C=C/c2cc(Br)ccc2F)CC1	-7	-12
Cc1ccc(Cc2nc(CSCCc3ccccc3)cs2)cc1	5	17
c1cncc(CNc2cc(-c3cnn4cccnc34)c3cc[nH]c3n2)c1	2	-1
COc1ccc(C(=O)COc2ccc(-c3noc(C(C)C)n3)cc2)cc1	7	6
Cc1cc(C)cc(C(=O)NCCc2csc(C)n2)c1	2	3
c1ccc(CN2CCOC(c3nc(C4CCOC4)no3)C2)cc1 (stereo not drawn)	4	2
CCC(CC)C(=O)N1CCC(=O)N(C)c2ccccc2C(OCC(=O)NC)C1 (stereo not drawn)	3	10
CCCCCCn1c(-c2ccccc2)csc1=Nc1ccccc1	-3	35
CN(C)C(CNC(=O)COc1cccc(N2CCCC2=O)c1)c1ccco1 (stereo not drawn)	3	0
CCS(=O)(=O)N1CCN(c2nccc(N3CCC(O)C3)n2)CC1 (stereo not drawn)	2	3
COC(=O)C1CCN(C(=O)CC2(c3ccc(-c4ccccc4)cc3)CC(=O)N(C3CC3)C2=O)CC1 (stereo not drawn)	12	4
COc1ccc2c(c1)CCCN2Cc1ccc(C(N)=O)cc1	3	-1
O=C(C=Cc1ccc(Br)o1)Oc1ccc2c(c1)OCO2	-2	21
Cc1ccc(C(=O)Nc2cccc(S(C)(=O)=O)c2)s1	3	0
Cc1ccc(S(=O)(=O)Nc2ccc(Nc3nc(C)cc(N4CCCC4)n3)cc2)c(C)c1	11	6
CCOC(=O)c1cc(-c2cccc(NC(=O)c3cc(C)nn3C)c2)n(-c2ccccc2OC)n1	25	13
COc1cccc(Oc2cc(Cl)nc(N)n2)c1	-27	-30
Nc1cc(-c2ccc(Cl)cc2)sc1-c1nnc2n1CCCCC2	0	-3
Cc1noc(C(C)Sc2nnnn2C2CCCC2)n1 (stereo not drawn)	0	2

Compound profiles, from the list above. Values in the order: NPYLR7 agonist | NPYLR7 agonist max-min
`CCC(CC)C(=O)N1CCC(=O)N(C)c2ccccc2C(OCC(=O)NC)C1` (stereo not drawn) in the list: 3 | 10
`c1cncc(CNc2cc(-c3cnn4cccnc34)c3cc[nH]c3n2)c1` in the list: 2 | -1
`COc1cccc(NC(=O)C(=O)Nc2ccc([N+](=O)[O-])cc2C)c1` in the list: -4 | 1

Remaining list, next part.
SMILES	NPYLR7 agonist	NPYLR7 agonist max-min
Cc1cccc2c3c([nH]c12)CCN(C(=O)CC1NC(=O)c2ccccc21)C3 (stereo not drawn)	14	7
CCOC(=O)C1(CCOc2ccccc2)CCCN(Cc2cnn(CC)c2)C1 (stereo not drawn)	8	5
CN1CCN(C)C1=NC(c1ccccc1)(c1ccccc1)c1ccccc1	-9	-12
O=C(C1CC1)N1CCC(Oc2ccc(C(=O)N3CCCC3c3ccc(F)cc3)cc2)CC1 (stereo not drawn)	6	2
COC(=O)[C@@H]1CCCN1Cc1nc(-c2ccc3c(c2)OCO3)no1	-8&2	-8&-1
Cc1cc(C)n(-c2cc(N)nc(Cl)n2)n1	-10	-17
CC(C)c1ccc(NC(=O)c2ccc(S(N)(=O)=O)cc2)cc1	-7	-8
O=C(CCc1ccc(F)c(F)c1)NCCc1cnccn1	4	-1
COC(=O)c1ccc(-c2noc(CN3CCc4ccccc4C3)n2)cc1	14	1
CN1CCN(NC(=O)/C=C/C(=O)O)CC1	-4	-4
CCCSc1nc2c(c(=O)[nH]1)C(c1ccc(Cl)cc1)C(C(=O)OC(C)C)C(C)=N2 (stereo not drawn)	-3	-5
Cc1nc2ccccc2n1CC(O)c1cccc(F)c1 (stereo not drawn)	4	3
Cc1ccccc1CSc1nnc(C(C)NC(=O)C(c2ccccc2)c2ccccc2)n1-c1cc(Cl)ccc1C (stereo not drawn)	1	5

Some of the entries so far, bar-delimited.
SMILES | NPYLR7 agonist | NPYLR7 agonist max-min
O=C(CCc1ccc(F)c(F)c1)NCCc1cnccn1 | 4 | -1
Cc1cccc2c3c([nH]c12)CCN(C(=O)CC1NC(=O)c2ccccc21)C3 (stereo not drawn) | 14 | 7
CCOC(=O)C1(CCOc2ccccc2)CCCN(Cc2cnn(CC)c2)C1 (stereo not drawn) | 8 | 5
CC(C)c1ccc(NC(=O)c2ccc(S(N)(=O)=O)cc2)cc1 | -7 | -8
Cc1ccccc1CSc1nnc(C(C)NC(=O)C(c2ccccc2)c2ccccc2)n1-c1cc(Cl)ccc1C (stereo not drawn) | 1 | 5
COC(=O)c1ccc(-c2noc(CN3CCc4ccccc4C3)n2)cc1 | 14 | 1

Single entries from above.
Cc1ccc(C(=O)Nc2cccc(S(C)(=O)=O)c2)s1 in NPYLR7 agonist → 3
N#CC1C(=N)OC2=C(C(=O)CCC2)C1c1cccc(F)c1 (stereo not drawn) in NPYLR7 agonist → 6
c1ccc(Cc2nnc3sc(-c4ccco4)nn23)cc1 in NPYLR7 agonist max-min → -3
COCC1(C(=O)NCCS(=O)(=O)N2CCCC2)CCC1 in NPYLR7 agonist → 5

Bioassay records from PubChem.
